# Source: PubChem (several laboratories)
# RecA intein inh: inhibitors of M. tuberculosis RecA intein splicing; P9WHJ3; cell-free RecA intein splicing, fluorescence; inhibition, %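 (about 9 µM by stock and volumes)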; actives 0.75% (n = 290,000); AID 2221; in the data active means inhibition above about 30%;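 further: 0% = vehicle wells and 100% = reference inhibitor control wells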
# Target sequence (P9WHJ3 whole entry, looked up): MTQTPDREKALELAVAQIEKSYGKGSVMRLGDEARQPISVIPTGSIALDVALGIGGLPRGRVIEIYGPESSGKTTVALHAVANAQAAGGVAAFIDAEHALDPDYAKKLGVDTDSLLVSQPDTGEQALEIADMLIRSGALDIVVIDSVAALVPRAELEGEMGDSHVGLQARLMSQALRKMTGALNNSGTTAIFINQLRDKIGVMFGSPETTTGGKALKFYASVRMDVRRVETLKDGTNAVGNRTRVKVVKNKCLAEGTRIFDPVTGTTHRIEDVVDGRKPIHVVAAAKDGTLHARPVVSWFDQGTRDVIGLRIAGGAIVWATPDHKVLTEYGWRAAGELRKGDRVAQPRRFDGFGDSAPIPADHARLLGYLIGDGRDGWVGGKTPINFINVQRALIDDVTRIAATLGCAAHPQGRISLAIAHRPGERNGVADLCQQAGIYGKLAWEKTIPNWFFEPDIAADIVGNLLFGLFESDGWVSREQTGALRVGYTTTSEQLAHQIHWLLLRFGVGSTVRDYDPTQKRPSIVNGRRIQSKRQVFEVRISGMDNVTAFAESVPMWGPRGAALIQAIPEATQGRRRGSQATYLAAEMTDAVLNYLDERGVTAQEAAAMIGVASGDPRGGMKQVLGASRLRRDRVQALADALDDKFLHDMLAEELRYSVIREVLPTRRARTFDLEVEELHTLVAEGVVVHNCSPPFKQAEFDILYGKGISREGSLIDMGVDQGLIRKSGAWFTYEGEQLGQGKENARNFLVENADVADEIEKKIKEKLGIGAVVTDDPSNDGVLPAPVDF
# Arbovirus inh: arbovirus infection inhibition; inhibition, % at 10 µM; arbovirus infection cell-based antiviral screen; actives 0.37% (n = 200,000);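 active means inhibition from about 30%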;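 further: bluetongue infection of BSR cells; cell survival read as ATP light after 72 h; 0% = infected wells without compound and 100% = uninfected wells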
# YopH inh: blocks Yersinia enterocolitica YopH tyrosine phosphatase; fluorescence Ex485/Em525; inhibition, %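 (about 10 µM by stock and volumes)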; actives 0.16% (n = 140,000); AID 898;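 active means inhibition of 50% or more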;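 further: controls were vehicle for no effect and minimum signal wells for full effect; inactives centre near -20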
# Mtb growth: M. tuberculosis H37Rv growth inhibitors, H37Rv strain (AID 1626); M. tuberculosis H37Rv growth inhibition; higher % means a stronger effect; one-dose inhibition, % at 10 µM; IC50 in µM for titrated hits; actives 0.95% (n = 220,000);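 active means confirmed in a dose series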;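 further: bacteria incubated seven days before Alamar blue readout; 0% = bacteria only wells and 100% = bacteria with antibiotic wells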
# Mtb bLac sens: beta-lactam sensitization of Mtb H37Rv. M. tuberculosis H37Rv growth with meropenem, percent inhibition; hits of this screen are not shown here. inhibition, % at 25 µM. actives 0.27% (n = 330,000);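 active means about 74% or more and at least 40 points above the plate without the antibiotic, then above 30% in a dose series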;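 further: growth measured after seven days incubation then overnight dye step; 0% = bacteria only wells and 100% = bacteria with antibiotic; twin plates without the antibiotic show which effects depend on it; some results filed as inactive read as strong as hits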
# Arbovirus inh repeat: second read-out of Arbovirus inh, no call of its own (marks repeat the call); inhibition, %; measured here: 10K subset replicate screen; many hits read low in the repeat;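 first of two repeat runs on a subset; 0% = infected and 100% = uninfected wells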
# * = called active by the depositor; / = not tested or not shown.
SMILES,RecA intein inh,Arbovirus inh,YopH inh,Mtb growth,Mtb bLac sens,others
COc1ccc(/C=C2\Sc3ccc(C(=O)NCCN4CCCCCC4)cc3N(C)C2=O)cc1,5.8,/,/,/,99.0,
COc1cccc(-c2cc(C(=O)N3CCN(C(=O)c4ccco4)CC3)on2)c1,-1.3,/,/,/,-1.4,
O=C1CN(C(=O)c2ccc(Br)o2)C(c2ccccc2)c2cc(F)ccc2N1 (stereo not drawn),-1.3,-0.7,-34.2,2.8%,-4.9,Arbovirus inh repeat=-1.8
COc1ccc(Cl)cc1C(=O)NNC(=O)c1nc2nc(C)cc(C)n2n1,1.9,/,/,-28.6%,-8.0,
COc1ccc(NC(=O)Nc2ccc(N(C)C)cc2)cc1,-5.8,-7.7,-17.5,-7.9%,8.3,
CCOc1ccccc1CN1CCCC(C(=O)c2ccc(OC)c(OC)c2)C1 (stereo not drawn),-1.8,/,/,/,0.4,
O=C(O)C1CCC(=O)N1C1CCCC1 (stereo not drawn),-1.9,-0.7,-46.4,-0.6%,0.9,
Cc1ccc(NC(=O)COc2coc(CN3CCN(Cc4ccccc4)CC3)cc2=O)cc1,-1.7,/,/,/,0.1,
CCCOP(=O)(c1ccc(N(C)C)cc1)C(O)c1cccnc1 (stereo not drawn),-0.3,-4.4,16.7,0.6%,-3.9,
Cc1onc(-c2c(F)cccc2Cl)c1C(=O)N1CCN(c2ncc(Br)cn2)CC1,11.2,/,/,9.8%,-13.7,
Cc1ccc(CNC(=O)CCC(=O)Nc2nnc(C(C)C)s2)cc1,-0.8,/,/,/,-7.9,
CCC(=O)Nc1cccc(C(=O)/C=C/c2cccs2)c1,6.7,-30.5,/,31.2%,27.9,
COC(=O)c1ccccc1S(=O)(=O)N1Cc2cc([N+](=O)[O-])ccc2Oc2ccccc21,10.2,-1.8,-10.2,-17.6%,-3.0,
CCOC(=O)Cc1c(C)nc2c(-c3ccc(Cl)cc3)c[nH]n2c1=O,0.4,-30.5,-11.1,/,98.2,
COc1ccc(N(C(=O)Cn2nnc(-c3ccc(Cl)cc3)n2)C(C(=O)NCC2CCCO2)c2ccncc2)cc1 (stereo not drawn),-0.9,-3.3,/,-4.2%,-5.2,
Cc1ccc(N(CCC(=O)Nc2nnc(C3CC3)s2)S(=O)(=O)c2ccccc2)cc1,0.6,-3.2,-29.6,0.7%,9.3,
O=C(CC1C(=O)NCCN1CC1CCCCC1)NCc1ccc(Cl)cc1 (stereo not drawn),3.1,8.1,/,7.0%,-1.1,
CC(C)CC(=O)N1CCN(S(=O)(=O)c2ccccc2)CC1,1.6,4.2,-8.6,-14.0%,-4.3,
CSc1nc(N)c(C#N)c(-c2ccccc2Cl)c1C#N,0.6,-7.5,-6.2,4.0%,-5.0,
Cn1c(CCc2ccccc2)nnc1SCC(=O)N1CCCC1,0.0,11.6,-0.3,-0.2%,-11.6,
Cc1occc1C(=O)NNC(=S)NCc1ccc(Cl)cc1,1.1,-1.8,/,-7.4%,1.5,
Cc1nnc(NC(=O)CCC(=O)N2CCC(C)CC2)s1,4.6,-1.5,-12.7,-0.5%,7.4,
N#C/C(=C/c1ccc(OCc2ccc(C(=O)O)cc2)c(Br)c1)c1cccc(F)c1,1.8,-18.6,/,6.5%,55.5,
Cc1ccc(NC(=O)Cc2nnc(SCC(=O)Nc3ccccc3)n2C)cc1,-1.5,4.1,-24.1,-10.7%,6.2,
COc1ccc(-c2ncncc2-c2ccc(Cl)cc2)c(O)c1,-2.4,/,/,1.4%,-10.8,
# Other entries
SMILES,RecA intein inh,Arbovirus inh,YopH inh,Mtb growth,Mtb bLac sens,others
CN1CCN(C(=O)CN(C)S(=O)(=O)c2ccc(F)cc2)CC1,-0.4,/,/,/,-5.5,
COc1cc(SC)ccc1C(=O)OCC(=O)N1CCCC1,2.5,/,/,/,-8.3,
O=C(Nc1ccccc1Cl)N(Cc1nc2ccccc2c(=O)[nH]1)Cc1cccs1,2.3,-3.2,-13.2,4.1%,-1.4,
Cc1nnc(NC(=O)c2csc3c2CCC(C)C3)s1 (stereo not drawn),1.2,-4.8,/,6.1%,5.4,
CN(Cc1ccccc1Cl)C(=O)c1cc2ccccc2o1,6.8,/,/,/,2.7,
CCOc1ccc(NC(=O)CN(C)C(=O)c2cc(C)oc2C)cc1OCC,1.0,/,/,/,-5.6,
NC(=O)NC(=O)CC1S/C(=N/N=C/c2ccccc2)NC1=O (stereo not drawn),-1.3,4.2,/,-1.0%,-5.5,
COc1ccc(OC)c(NC(=O)CSc2ncccn2)c1,0.1,-3.6,-17.2,-7.1%,-9.5,
CCN(CC)CCN1C(=O)C(=O)/C(=C(/O)c2ccncc2)C1c1ccccc1 (stereo not drawn),-0.7,6.7,-27.2,0.5%,-5.7,
Cc1ccc2oc3c(c(=O)c2c1)C(c1cccs1)N(CCCN(C)C)C3=O (stereo not drawn),11.6,9.1,/,1.8%,-2.8,Arbovirus inh repeat=0.0
CCOC(=O)C1=C(CSCc2ccccc2)NC(=O)NC1c1cc(C)ccc1C (stereo not drawn),/,-13.2,19.9,10.1%,0.4,
Cc1ccc(NC(=S)N=Nc2c(O)n(C)c3ccc(S(=O)(=O)N4CCOCC4)cc23)cc1C,3.5,-5.9,-8.4,2.1%,-10.1,
[N-]=[N+]=N[C@@H](CCN1CC[C@H](O)CCC1=O)c1ccccc1,-1.6,/,/,/,-6.3,
CCN=C1SC(CC(=O)Nc2sc3c(c2C#N)CCCC3)C(=O)N1CC (stereo not drawn),-0.5,-5.3,-3.2,4.6%,2.8,
NC(=O)CSc1nnc(-c2ccc(S(=O)(=O)N3CCOCC3)cc2)n1CC1CCCO1 (stereo not drawn),2.2,7.4,-28.2,-2.7%,-2.2,
Cc1ccccc1C(=O)N1CCC(C(=O)Nc2ccc(S(=O)(=O)N3CCCCC3)cc2)CC1,-2.3,/,/,/,-5.8,
CC1SC(c2ccccc2Cl)NC1=O (stereo not drawn),-1.5,2.2,-3.5,0.4%,-10.6,
COCCOC(=O)C1=C(C)Nc2ncnn2C1c1ccc(F)cc1 (stereo not drawn),-3.3,3.9,-49.9,-4.0%,9.4,
Cc1ccccc1NC1=C(Cl)C(=O)OC1OC(=O)c1ccco1 (stereo not drawn),43.4*,-3.5,-4.5,3.0%,0.5,
CCOc1ccc(-n2c(SCC(N)=O)nnc2-c2ccco2)cc1,1.2,/,/,/,-4.0,
Clc1ccccc1CSc1nncn1NC/C=C/c1ccccc1,-5.9,-9.8,2.4,8.3%,7.8,
COC(=O)CC(NC(=S)NC(=O)c1ccccc1)c1ccc(Br)cc1 (stereo not drawn),9.0,/,/,/,0.2,
COc1cc(/C=C2/SC(=S)N(CC(=O)O)C2=O)ccc1OCC(=O)Nc1ccc(C)c(C)c1,12.3,/,/,/,1.4,
Cc1cc(C)c(S(=O)(=O)NCC(c2ccc3c(c2)OCO3)N2CCOCC2)c(C)c1 (stereo not drawn),0.4,/,/,/,-13.5,
Cc1nc(C)c(C(=O)N2CCCC(C(=O)c3ccc(Cl)cc3C)C2)s1 (stereo not drawn),-0.6,/,/,/,7.5,

# Of the compounds above, 8 have an aryl thioether with sulfur outside any ring:
SMILES,RecA intein inh,Arbovirus inh,YopH inh,Mtb growth,Mtb bLac sens,others
CSc1nc(N)c(C#N)c(-c2ccccc2Cl)c1C#N,0.6,-7.5,-6.2,4.0%,-5.0,
Cn1c(CCc2ccccc2)nnc1SCC(=O)N1CCCC1,0.0,11.6,-0.3,-0.2%,-11.6,
Cc1ccc(NC(=O)Cc2nnc(SCC(=O)Nc3ccccc3)n2C)cc1,-1.5,4.1,-24.1,-10.7%,6.2,
COc1cc(SC)ccc1C(=O)OCC(=O)N1CCCC1,2.5,/,/,/,-8.3,
COc1ccc(OC)c(NC(=O)CSc2ncccn2)c1,0.1,-3.6,-17.2,-7.1%,-9.5,
NC(=O)CSc1nnc(-c2ccc(S(=O)(=O)N3CCOCC3)cc2)n1CC1CCCO1 (stereo not drawn),2.2,7.4,-28.2,-2.7%,-2.2,
CCOc1ccc(-n2c(SCC(N)=O)nnc2-c2ccco2)cc1,1.2,/,/,/,-4.0,
Clc1ccccc1CSc1nncn1NC/C=C/c1ccccc1,-5.9,-9.8,2.4,8.3%,7.8,

# Next section:
SMILES,RecA intein inh,Arbovirus inh,YopH inh,Mtb growth,Mtb bLac sens,others
O=C(COC(=O)CCC1CCCC1)Nc1cccc(S(=O)(=O)N2CCOCC2)c1,2.7,/,/,/,33.5,
C/C(=N\N=C1\NC(=O)CS1)c1cccs1,-3.1,-5.9,/,4.6%,-4.8,
FC(F)Oc1ccc(-c2csc(=Nc3cccnc3)n2CC2CCCO2)cc1 (stereo not drawn),1.8,8.3,-16.2,9.3%,7.7,
O=C(Nc1nccs1)c1cn2ccccc2n1,0.0,/,/,9.4%,33.1,
Cc1nc2ccccc2n1C(=O)c1ccccc1[N+](=O)[O-],0.8,0.2,-26.9,-0.9%,-1.0,
Cc1ccc(S(=O)(=O)N2CCCCC2)cc1NC(=O)CSc1ncn[nH]1,0.5,3.1,/,7.4%,0.9,
CCCN1C2CCCC1CC(NC(=O)c1ccccc1Br)C2 (stereo not drawn),-1.4,/,/,/,-1.4,
O=C(CCSc1ccccn1)c1ccccc1,2.1,-28.6,/,54.7%,98.8,
Cc1oc(-c2ccccc2Cl)nc1Cn1cccc1C1=NC(c2ccccc2)CO1 (stereo not drawn),0.7,7.0,-15.5,-12.8%,-2.6,
COC(=O)CC(=O)N1CCN(c2ccc(Cl)c(Cl)c2)CC1,0.3,4.4,/,11.9µM*,-8.8,
O=C(O)CNc1nc(-c2ccccc2)nc2ccccc12,0.3,5.7,-138.0,-9.4%,0.2,
CC(=O)Nc1ccc(NC(=O)c2sc(-c3ccccc3)nc2C)cc1,0.5,/,/,/,-4.4,
CCCNC(=O)c1ccc(OC)cc1OC,0.7,4.1,-2.8,-20.6%,-4.1,
Cn1cc(C(=O)NCN2CCCCC2)c2ccccc21,0.6,-7.9,-13.3,/,-22.7,
COc1cccc(Nc2ncccc2C(=O)O)c1,-1.1,-1.3,-65.5,-5.4%,-7.2,
CCOC(=O)N/N=C/C(Cl)=C/c1ccccc1,4.0,7.0,/,3.4%,5.9,
Oc1ccc(Cl)cc1CNc1cccc2cccnc12,13.4,/,/,/,0.6,
CCOCC(=O)Nc1ccc(S(=O)(=O)N2CCC(c3nc4ccccc4[nH]3)CC2)cc1,11.5,/,/,/,-6.0,
CCOC(=O)c1cn(Cc2cccc(Cl)c2)nn1,-3.4,-13.8,-9.6,5.8%,-0.9,
CCOc1ccccc1NC(=O)c1cccc(S(=O)(=O)N(Cc2ccccc2)c2ccccc2OC)c1,5.2,11.7,-26.8,14.8%,11.1,
COc1ccc(C(=O)OCCOc2cccc(Cl)c2)cc1S(=O)(=O)N1CCOCC1,7.2,/,/,/,-10.5,
CNC(=O)c1sc(-c2cccs2)nc1C,-7.8,26.7,/,4.8%,-8.3,
CCC(C)c1ccc(NC(=O)c2cnn3c(C(F)F)cc(C)nc23)cc1 (stereo not drawn),0.7,-1.6,/,9.7%,-8.9,
COc1ccc2nc(C)cc(SCC(=O)N/N=C/c3ccc(O)c(O)c3)c2c1,-6.1,-12.3,/,4.9%,-3.2,
CCOC(=O)c1ccccc1NC(=O)CSc1nc2ccncc2[nH]1,2.2,/,/,/,5.1,
# The list continues:
SMILES,RecA intein inh,Arbovirus inh,YopH inh,Mtb growth,Mtb bLac sens,others
O=C(CSc1nnc(-c2ccc(F)cc2)c2ccccc12)Nc1ccccc1,4.8,4.7,-16.1,7.3%,1.7,
CC1CC(C)(C)NCCNC(C)CC(C)(C)NCCN1 (stereo not drawn),-4.4,1.2,-48.7,-7.9%,-0.8,
COC(=O)c1cc2sc(Cl)cc2n1CC(=O)Nc1ccc(OC)c(OC)c1OC,0.6,-2.0,-34.3,-4.3%,2.4,
FC(F)(F)c1cccc(NC(=S)NCC(c2cccnc2)N2CCOCC2)c1 (stereo not drawn),2.6,-9.4,-6.5,-6.7%,-3.8,
O=C(CC(Cc1ccccc1)c1ccco1)NCc1ccco1 (stereo not drawn),1.9,/,/,-4.0%,-7.3,
COc1ccc(C(O)(C2CCCCC2)C(CN2CCOCC2)c2ccccc2)cc1 (stereo not drawn),21.1,/,/,/,12.9,
O=C(CC(c1ccccc1)c1ccccc1)N1CCN(c2ccccn2)CC1,-2.2,-2.3,/,-17.5%,-11.9,
Cn1c(=O)c2c(nc(CN3CCN(c4ccccc4F)CC3)n2CCCc2ccccc2)n(C)c1=O,1.4,/,-23.1,1.1%,21.8,
CCC(=O)Nc1ccccc1C(=O)N1CCN(Cc2ccccc2)CC1,-3.0,2.8,-40.0,7.1%,1.8,Arbovirus inh repeat=1.2
COc1ccc(NC(=O)CSCC(=O)N(C)CCOc2ccc(Cl)cc2)cc1,0.0,/,/,/,0.3,
O=C(NCCCN1CCCC1=O)c1cc2c(s1)CCCCC2,-0.4,/,/,4.6%,-3.5,
CCCCn1c(NC(=S)Nc2ccccc2)nc2ccccc21,4.4,-13.9,-20.8,9.5%,-2.0,

# The list is partial; rates above refer to the full screens.
